Source: PubChem (several laboratories)
Hsc70 ATP site = small molecules displacing fluorescent ligand from Hsc70 – biochemical, fluorescence polarization, primary screen (AID 568); Hsc70 fluorescence polarization, probe displacement; higher % means a stronger effect; strong numbers were not always called active; one-dose displacement, % at 20 µM; IC50 in µM for titrated hits; 83,000 tested, under 10 active;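 active means displacement above 50% without optical interference and an IC50 on retest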;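 further: ATPase domain with a fluorescein-tagged ATP probe; 0% = vehicle and 100% = excess ADP; read after one hour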
WNV protease inh = WNV NS2B-NS3 proteinase inhibition; z-score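 (tested at a level between 10 and 100 µM)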; 0.18% of 65,000 active; P06935; WNV NS2B-NS3 protease, fluorogenic substrate Ex360/Em465; active compounds read low;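 active means z-score at -3 or under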;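 further: score is relative to mean and spread of the compound wells of a plate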
Target sequence (P06935 1371-1501 limits assumed): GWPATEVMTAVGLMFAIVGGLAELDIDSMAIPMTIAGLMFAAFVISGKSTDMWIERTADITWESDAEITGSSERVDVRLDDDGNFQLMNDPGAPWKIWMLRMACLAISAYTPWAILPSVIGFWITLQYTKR
Target sequence (P06935 1502-1679 limits assumed): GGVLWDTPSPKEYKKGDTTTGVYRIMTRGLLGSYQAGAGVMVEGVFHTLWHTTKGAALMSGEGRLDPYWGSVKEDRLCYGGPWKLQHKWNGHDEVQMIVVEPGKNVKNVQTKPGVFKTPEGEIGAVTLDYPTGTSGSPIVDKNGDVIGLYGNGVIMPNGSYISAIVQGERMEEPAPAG
MT1-MMP reporter = inhibitors of MT1-MMP promoter transcription, cell-based, luciferase reporter, luminescence (AID 618). MT1-MMP promoter luciferase reporter cells, luminescence. calls from a first round at 10 µM; hits with a dose series show EC50 in µM. 0.62% of 87,000 active;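 active means over half of the reporter light lost at 10 µM or EC50 under 50 µM; inactive means the rest and hits that failed the dose series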;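 further: actives suppress MT1-MMP promoter-driven transcription so potencies describe inhibitors; HT1080 fibrosarcoma cells; overnight exposure; toxic or luciferase-blocking compounds were not removed from the actives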
* hit, by the source's call; i = inactive; nt = not tested or not shown.

SMILES	Hsc70 ATP site	WNV protease inh	MT1-MMP reporter
COc1ccc(S(=O)(=O)N2CCCC(C(=O)Nc3cccc(C(C)=O)c3)C2)cc1 (stereo not given)	-4.1%	0.37	i
Cc1ccc(OCCCC(=O)Nc2ccc(N3CCOCC3)cc2)cc1	0.8%	nt	i
O=C(C1CCCCC1)N1CCCC(c2nc(-c3ccc(F)cc3)no2)C1 (stereo not given)	-2.1%	-0.28	i
CN(CC(=O)NCc1ccc(F)cc1)S(=O)(=O)c1cccc2nsnc12	-5.7%	-1.23	i
Cc1ccc(S(=O)(=O)NCc2ccco2)c(C)c1C	1.6%	-1.05	i
CC(=O)c1c(O)cc(C)n(Nc2nc(C)cc(C)n2)c1=O	2.0%	3.1	i
CCSC1=C(C#N)C2(CCCCC2)C(C#N)C(=O)N1 (stereo not given)	-0.3%	-1.18	i
O=C(NCC(=O)N(c1cnc2ccccc2c1)C(C(=O)NC1CCCC1)c1ccncc1)c1ccco1 (stereo not given)	-2.3%	1.21	i
CC(=O)C1=C(O)C(=O)N(C)C1c1ccccc1F (stereo not given)	-1.1%	-0.75	i
CCc1c(C)c(C#N)c2nc3ccccc3n2c1-n1nc(C)cc1C	0.3%	-0.13	i
CC(C)NS(=O)(=O)c1ccc(OCC(=O)NCc2ccccc2)cc1	-0.8%	1.82	i
Cc1cccc2nc(CSc3nc4[nH]ncc4c(=O)n3-c3cccc(Cl)c3)cc(=O)n12	4.3%	nt	i
CC(=O)Nc1ccc(S(=O)(=O)NCCSc2ccccn2)cc1	-1.3%	0.15	i
COc1ccc(CCNC(=O)c2nonc2N)cc1OC	1.8%	-0.04	i
O=C(Oc1ccc2c(c1)OCO2)c1ccc(F)cc1Cl	0.8%	0.59	i
CCCCOc1ccccc1NC(=O)c1ccco1	7.1%	-0.34	i
CC(C)C(C)(C#N)NC(=O)CSc1nc2scc(-c3ccco3)c2c(=O)n1-c1ccccc1 (stereo not given)	-4.7%	0.29	i
O=C1c2oc3ccccc3c(=O)c2C(c2cccc(F)c2)N1CCCO (stereo not given)	-8.0%	0.38	i
CCc1cccc2c(C(=O)CSc3nnc(-c4ccoc4C)n3C)c[nH]c12	1.7%	nt	i
CCN(CC)C(=O)N1CCn2c(nc3ccccc32)C1	8.1%	nt	i
CCCNC(=O)NCCc1ccncc1	-0.7%	-0.37	i
COCCNC(=O)C(c1ccc(C)cc1)N(C(=O)CCC(=O)Nc1ccccn1)C1CCCC1 (stereo not given)	3.1%	0.49	i
Cc1cccc(NC(=O)CCN2C(=O)C3C4C=CC(C4)C3C2=O)c1 (stereo not given)	0.3%	nt	i
CCOC(=O)C1CCN(c2cc(=O)n(Cc3ccc(F)cc3)c(=O)[nH]2)CC1	3.4%	-0.54	i
Cc1ccc(N2C(=O)CC(Sc3ncn[nH]3)C2=O)cc1C (stereo not given)	3.7%	nt	i

Full records from above. Screens in order: Hsc70 ATP site	WNV protease inh	MT1-MMP reporter
COc1ccc(S(=O)(=O)N2CCCC(C(=O)Nc3cccc(C(C)=O)c3)C2)cc1 (stereo not given) is entered as -4.1%	0.37	i
CCN(CC)C(=O)N1CCn2c(nc3ccccc32)C1 is entered as 8.1%	nt	i
CCSC1=C(C#N)C2(CCCCC2)C(C#N)C(=O)N1 (stereo not given) is entered as -0.3%	-1.18	i
Cc1ccc(OCCCC(=O)Nc2ccc(N3CCOCC3)cc2)cc1 is entered as 0.8%	nt	i

Looked up by compound from above (4):
SMILES	Hsc70 ATP site	WNV protease inh	MT1-MMP reporter
O=C1c2oc3ccccc3c(=O)c2C(c2cccc(F)c2)N1CCCO (stereo not given)	-8.0%	0.38	i
CCCCOc1ccccc1NC(=O)c1ccco1	7.1%	-0.34	i
CCOC(=O)C1CCN(c2cc(=O)n(Cc3ccc(F)cc3)c(=O)[nH]2)CC1	3.4%	-0.54	i
CC(=O)c1c(O)cc(C)n(Nc2nc(C)cc(C)n2)c1=O	2.0%	3.1	i

The listing continues:
SMILES	Hsc70 ATP site	WNV protease inh	MT1-MMP reporter
Cc1cccc(-c2nc(=S)c3c(o2)CCCC3)c1	-0.4%	nt	i
Cc1cc(C)c(S(=O)(=O)n2cnc3ccccc32)c(C)c1	6.4%	nt	i
Cc1cc(NC(=O)CSc2nnc3c(C)cc4ccccc4n23)no1	6.0%	-0.4	i
Cc1ccc(C)n1CCN1CCN(CC(=O)Nc2cc(C(F)(F)F)ccc2Cl)CC1	-2.3%	-0.46	i
CCOC(=O)CSc1nc2cc(C(=O)NCc3ccco3)ccc2c(=O)n1C1CCCCC1	-2.2%	0.64	i
CCN(CC)S(=O)(=O)c1ccc(C(=O)Nc2ccc(OCC(=O)N3CCOCC3)cc2)cc1	0.7%	0.52	i
O=[N+]([O-])c1cccc(/C=N\N2CCN(Cc3ccccc3Cl)CC2)c1	-0.5%	nt	i
Nn1c(Nc2ccccc2)nc2ccccc2c1=O	-1.6%	0.75	i
Clc1ccc(OCc2nc(-c3ccncc3)no2)c(Br)c1	-5.8%	-0.6	i
CCCC(=O)N1CC(=O)Nc2ccc(F)cc2C1c1ccccc1 (stereo not given)	-2.7%	-1.01	i
CC1=NOC(=O)/C1=C/c1ccc(-c2ccc(Cl)cc2)o1	-1.1%	nt	i
COCC(=O)NCc1ccc2c(c1)OCO2	0.5%	-0.08	i
COC(=O)c1cc(OC)c(OC)cc1NC(=O)c1c(-c2ccccc2Cl)noc1C	8.4%	-0.41	i
O=C(c1cc2ccccc2o1)N1CCN(c2ccccc2Cl)CC1	5.1%	-0.4	i
O=C(C1=C(O)C(=O)N(c2ncccn2)C1c1ccc(Cl)cc1)c1ccco1 (stereo not given)	1.7%	nt	i
CCCNc1ncnc2sc(C)c(C)c12	-3.2%	-0.83	i
CCOC(=O)c1c(C)[nH]c(C(=O)OCC(=O)N2CC(C)OC(C)C2)c1C (stereo not given)	-2.4%	-0.65	i
O=C(COc1ccc2ccccc2c1CN1CCOCC1)N1CCc2ccccc21	-2.5%	-0.13	i
CCOC(=O)CSc1nnc(NC(=O)c2cccc(S(=O)(=O)N3CCCC3)c2)s1	-0.1%	0.7	i
Cc1ccc2nc(N3CCN(S(=O)(=O)c4ccc(C)c(Cl)c4)CC3)c(C#N)cc2c1	-5.3%	nt	i
S=c1[nH]ncn1-c1ccccn1	-1.2%	-0.12	i
COc1ccc(Cl)c(Cn2c(NCCCN(C)C)nc3c2c(=O)n(C)c(=O)n3C)c1	0.7%	-0.86	i
Cn1c(SCc2nc3ccccc3s2)nnc1-c1ccc2c(c1)OCO2	2.8%	0.21	i
Cn1c(=O)[nH]c(=O)c2c1nc(CN1CCOCC1)n2CCCO	8.8%	-1.35	i
CCOC(=O)Cn1c(N)c(C(=O)OC)sc1=S	3.1%	1.01	i
Following part
SMILES	Hsc70 ATP site	WNV protease inh	MT1-MMP reporter
COCCCNc1ncnc2nc[nH]c12	5.0%	-0.6	i
CC1=NN(C(N)=S)C(=O)C1N=Nc1ccccc1C (stereo not given)	2.2%	nt	i
O=C(c1ccc(F)cc1)N1CCCCC(Sc2nnnn2-c2ccccc2)C1=O (stereo not given)	7.5%	nt	i
CSc1ccccc1NC(=O)c1ccco1	1.0%	-1.95	i
CCSc1nnc(-c2ccc(S(=O)(=O)N3CCCC3)cc2)n1C	2.4%	0.38	i
COc1ccccc1CC(=O)Nc1ccc(-c2noc(COc3ccc(Cl)c(C)c3)n2)cc1	-4.2%	nt	i
c1ccc2c(c1)sc1nnnn12	5.2%	-0.77	i
CC(C)CCn1c(N2CCN(Cc3ccccc3)CC2)nc2c1c(=O)[nH]c(=O)n2C	-5.2%	-1.91	i
Cc1cccc(S(=O)(=O)NCCC(=O)OC(C)C(=O)NC(=O)NC2CCCCC2)c1 (stereo not given)	1.4%	1.61	i
COc1ccc2nc(SCC(=O)N3CCNC3=O)[nH]c2c1	-7.3%	-1.1	i
CC(C(=O)Nc1cc(C(F)(F)F)ccc1N1CCOCC1)N1C(=O)C2CC=CCC2C1=O (stereo not given)	3.5%	-1.15	i
Nc1cc(-c2cccc(F)c2)nn1S(=O)(=O)c1cccc2nsnc12	38.2%	-1.19	i
Cc1nnc(SCCn2c(N3CCC(C)CC3)nc3c2c(=O)[nH]c(=O)n3C)s1	-8.7%	0.08	i
COc1ccc(OCC(=O)Nc2ccc(S(=O)(=O)N3CCCCCC3)cc2)cc1	7.4%	0.28	i
CCOC(=O)Nc1ccc2c(c1)Sc1ccccc1N2C(=O)CCN1CCOCC1	-9.0%	-0.75	i
COc1ccc(NC(=O)c2oc3ccccc3c2NC(=O)c2ccco2)c(OC)c1	-0.7%	0.29	i
CC1=C(C(=O)OC(C)C)C(c2ccc(C)o2)NC(=O)N1 (stereo not given)	3.1%	nt	i
Cc1ccc(-c2csc(N)n2)s1	-3.8%	-1.51	i
O=C(Oc1cccnc1)c1ccc(Cl)c(Cl)c1	-5.3%	-0.29	i
O=C(c1ccccc1C(F)(F)F)N1CCN(S(=O)(=O)c2ccccc2)CC1	-0.4%	-0.59	i
CCCOC(=O)CSc1nnc(-c2ccccc2Cl)o1	-5.9%	-0.58	i
c1ccc(CCc2nn3c(Cc4ccccc4)nnc3s2)cc1	1.8%	0.74	i
CC(C)(C)C(=O)/C=C/Nc1ccccc1O	-4.5%	nt	i
COC(=O)c1cc(=O)nc2sc3cc(OC)ccc3n12	-1.2%	nt	i
COc1ccc(OC)c(C(=O)CSc2nnc(-c3ccc(OC)c(OC)c3)o2)c1	-8.3%	-1.56	i
Further records
SMILES	Hsc70 ATP site	WNV protease inh	MT1-MMP reporter
CCOc1ccc(C2N(c3ccc(OC)cc3)C(=O)C3CCCN32)cc1OC (stereo not given)	-1.5%	-1.93	i
CC(C)c1ccc(OCC(O)CN2CCN(c3ccccc3)CC2)cc1 (stereo not given)	-2.9%	-0.53	i
O=c1c2ccccc2nnn1CSc1nnc(C2COc3ccccc3O2)n1-c1ccccc1 (stereo not given)	2.1%	0.25	i
CC1(C)SC(=S)N(/N=C/c2ccccc2)C1N(O)C(=O)Nc1ccc([N+](=O)[O-])cc1 (stereo not given)	3.2%	nt	i
O=C(NC1CCCCCC1)c1cccc(COCC(F)(F)F)c1	-0.8%	nt	i
C=CCn1cc(C(=O)NCc2cccnc2)c(=O)c2cc(S(=O)(=O)N(CC)CC)ccc21	3.7%	1.8	i
COc1ccc(NC(=O)CCN2CCN(S(=O)(=O)c3ccc(Cl)cc3)CC2)cc1	3.5%	nt	i
COc1nc(-c2ccccc2)cc(-c2ccccc2)n1	7.9%	1.18	i
CCN(CC)CCNC(=O)Cn1c(-c2ccccn2)nc2ccccc21	7.4%	1.49	i
CCCC(=O)N=C1SC2CS(=O)(=O)CC2N1c1ccc(C(C)=O)cc1 (stereo not given)	-15.0%	0.27	i
COc1ccc(-c2cc(C(F)(F)F)nc(N3CCN(C)CC3)n2)cc1	-1.9%	1.96	i
CCCCOc1ccc(C2C3CN(C(=O)OCC)CC=C3C(C#N)=C(N)C2(C#N)C#N)cc1OC (stereo not given)	-15.7%	-0.05	i
COc1cc2c(cc1OC)CN(CC(=O)NC(=O)NCc1ccco1)CC2	-2.7%	-0.61	i
Cc1cc(C(=O)CN2CC(C)OC(C)C2)c(C)n1-c1ccccc1 (stereo not given)	0.5%	-1.48	i
CC(C)(C)n1c(=O)[nH]c2c(c1=O)CCC2	5.1%	-0.15	i
O=C(NCc1cccnc1)c1cccc(S(=O)(=O)N2CCOCC2)c1	0.4%	-0.55	i
Cc1cc(Cl)c(S(=O)(=O)N2CCCCCC2)cc1OCC(=O)NC1CCCCC1	0.1%	nt	i
c1ccc(OCc2nc(-c3ccccc3)no2)cc1	-8.1%	0.95	i
CC(C)OC(=O)CC(=O)CSc1nc2c(cc1C#N)CCCCC2	-0.4%	nt	i
CCCCOc1ccc(NC(=O)C2CC=CCC2C(=O)O)cc1 (stereo not given)	0.6%	1.51	i
COC(=O)[C@@H](NC(=O)Nc1ccc(C(C)=O)cc1)C(C)C	-8.8%	-0.55	i
CC(C)c1ccc(NC(=O)N2CCC(c3nc4ccccc4o3)CC2)cc1	-4.5%	-0.83	i
Cc1ccccc1Cn1c(=O)n(Cc2ccco2)c(=O)c2ccccc21	4.7%	-0.56	i
COCCNC(=O)CN(C(=O)CCC(=O)Nc1ccccn1)c1ccc(F)c(Cl)c1	0.0%	-0.63	i
Cc1ccc(CN(c2ccc(C(=O)Nc3ccc4c(c3)OCO4)cc2)S(C)(=O)=O)cc1	1.3%	nt	i
The list goes on:
SMILES	Hsc70 ATP site	WNV protease inh	MT1-MMP reporter
CC12CC(c3ccccc3O1)C(C(=O)N1CCOCC1)C(=O)N2 (stereo not given)	0.5%	0.58	i
O=P(O)(CN1CCCCCC1)CN1CCCCCC1	3.6%	-0.25	i
O=C1c2ccccc2C(=O)N1C/C=C/CN1C(=O)c2ccccc2C1=O	6.2%	0.68	i
COc1ccc(CCNC(=O)CCC(=O)N2CCN(S(=O)(=O)c3ccc(Cl)cc3)CC2)cc1OC	-2.6%	nt	i
COc1cc2[nH]c(=O)n(CCCCCC(=O)N3CCN(c4ccccc4)CC3)c(=O)c2cc1OC	-1.1%	nt	i
CC/C(O)=N\S(=O)(=O)c1ccc(N=NN(C)C)cc1	1.3%	nt	i
Cc1cc2n(n1)C(c1ccc(O)cc1)Nc1ccccc1-2 (stereo not given)	1.8%	-0.29	i
Cc1nc(Cl)c(C(=O)NC(=O)Nc2cccc(C(F)(F)F)c2)c(C)c1[N+](=O)[O-]	-0.6%	nt	i
